# Screening data deposited in PubChem BioAssay by National Center for Advancing Translational Sciences (NCATS).
# GLA inh pH 4.5: qHTS Assay for Inhibitors of Human alpha-Galactosidase at pH 4.5; Alpha-galactosidase A (Homo sapiens), P06280; purified enzyme, 4-MU-alpha-Gal fluorescence, pH 4.5; activity change, negative = inhibition, % at 105 µM; 230,000 tested, under 10 active; AID 1467, 2008; inconclusive = small, poorly fitted or top-dose-only inhibition, or a rising curve; inactive = flat fitted curve, though single readings scatter; no compound was filed as active;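 further: 0% = full activity with enzyme and -100% = basal without enzyme; dose as in the result columns while the protocol names 77 µM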
# Target sequence (P06280 whole entry, looked up): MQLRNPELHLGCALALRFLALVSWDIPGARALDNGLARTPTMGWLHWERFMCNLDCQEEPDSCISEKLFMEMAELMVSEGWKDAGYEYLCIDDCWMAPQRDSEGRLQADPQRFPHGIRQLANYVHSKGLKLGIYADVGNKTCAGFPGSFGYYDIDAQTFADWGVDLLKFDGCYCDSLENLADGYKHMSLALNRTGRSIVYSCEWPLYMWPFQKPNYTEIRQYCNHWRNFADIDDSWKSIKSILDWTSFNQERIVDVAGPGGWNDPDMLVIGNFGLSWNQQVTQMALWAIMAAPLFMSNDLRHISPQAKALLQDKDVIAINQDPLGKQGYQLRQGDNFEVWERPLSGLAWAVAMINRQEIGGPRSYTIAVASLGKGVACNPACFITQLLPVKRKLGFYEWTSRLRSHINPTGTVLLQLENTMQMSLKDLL
# Rango-impB inh: qHTS Assay for Inhibitors of Rango (Ran-regulated importin-beta cargo) - Importin beta complex formation. Importin subunit beta-1 (Homo sapiens), Q14974. Rango CFP/YFP FRET sensor + importin beta, 45 min. Potency, µM (highest dose often 92.2 µM), for inactives: at the top dose inhibition of complex formation. 340,000 compounds, 0.031% hits. AID 540263, 2011; active = rising FRET ratio curve, often small or poorly fitted; inconclusive = mostly compound fluorescence or quenching in the first reads; inactive = flat curves in all reads;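 further: potency means the concentration at half of the fitted maximal effect; 0% = DMSO wells and 100% = buffer wells lacking importin beta; nearly all actives have a fitted effect of over 15% in size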
#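 FRET biosensor (snurportin 1 IBB flanked by EYFP and cerulean), 50 nM, with compound 5 min, then 0.125 microM importin beta in PBS, 1 mM DTT, 0.02% Tween-20, 0.1% BSA. CFP/YFP ratio read after 45 min at room temperature; pre-read flags interference.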
# Rango dissoc inh: qHTS Assay for Inhibitors of RanGTP induced Rango (Ran-regulated importin-beta cargo) - Importin beta complex dissociation; Biochemical FRET Rango-importin beta, RanGTP-induced dissociation; Potency, µM (highest dose often 46.1 µM), inactives show at the highest dose activity change, negative = inhibition; 340,000 compounds, 0.071% hits; AID 540253, 2011; active means falling FRET ratio curve, often poorly fitted, with flat reads before Ran was added; inconclusive means other falling curves, or compound fluorescence or quenching; inactive means flat or rising ratio curve;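 further: potency means the concentration at half of the fitted maximal effect; % of control where 0% means no effect; nearly all actives have a fitted effect of over 45% in size; -100% = wells without RanGTP and RCC1; the record marks most hits as doubtful in a second field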
#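 Rango FRET biosensor (snurportin-1 IBB flanked by N-terminal EYFP and C-terminal CFP10) at 0.1 uM, with 0.25 uM importin beta in PBS, 1mM DTT, 0.02% Tween-20, 0.1% BSA. 0.6 uM Ran, 2mM GTP and 0.2 uM RCC1 were then added for 45 min at room temperature. Inhibition read as loss of FRET rise.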
# miR-21 FLuc: qHTS Assay for Modulators of miRNAs and/orActivators of miR-21; AID 2288, 2010; 340,000 tested, under 10 active; HeLa miR-21 FLuc reporter, luciferase, 48 h; Potency, µM (highest dose often 38.3 µM), inactives show at the highest dose reporter change, positive = more light; active = well fitted rising curve with a large enough effect; inconclusive = small, poorly fitted or top-dose-only effect; inactive = no such curve, though single readings can be large or run the other way;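 further: % of control where 0% means no effect; miR-21 action dims this reporter so a rising signal means less miR-21 action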
#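 Using DMEM plus 10% FBS, HeLa miR-21-FLuc cells are incubated with test compounds (final up to about 40uM) for 48 hours; firefly luciferase signal is then imaged following reagent-mediated lysis.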
# * hit, by the source's call; ? = inconclusive; . = not tested or not shown; & = joins results of further samples. These rows are one share of the data, so the mix of outcomes need not match the whole.
# Screens in order – Rango dissoc inh | Rango-impB inh | GLA inh pH 4.5 | miR-21 FLuc
COC(=O)c1ccc2c(c1)NC(=O)c1ccccc1S2
  -5% | 3.2% | . | 3%
O=C1CN(C(=O)c2cnccn2)c2ccccc2N1
  -7% | 1.8% | -8 | -11%
O=C(COC(=O)Cc1ccc(F)cc1)NC1CCCC1
  2% | ? | . | .
c1ccc2c(c1)ncn2CCCCOc1ccc2c(c1)CCC2
  8% | 2.1% | -23 | 12%
O=c1cc[nH]c2cc(C(F)(F)F)ccc12
  -1% | -0.3% | -7 | 10%
CCOC(=O)CC(C#N)c1c[nH]c2ccccc12 (stereo not given)
  2% | 3.5% | -6 | -1%
CC/C(=N\Nc1nncc2ccccc12)c1ccc(F)cc1
  1% | -1.8% | . | -58%
Cc1cccc(CCN(C(=O)c2snc(C(N)=O)c2N)C(C(=O)NCC2CCCO2)c2ccc(F)cc2)c1 (stereo not given)
  5% | -4.8% | . | 2%
CC1(C)CC(=O)C(N=Nc2cc(S(=O)(=O)N3CCOCC3)ccc2Cl)=C(O)C1
  -7% | 0.2% | 0 | -2%
CCOC(=O)Cn1nc(/C=C/c2ccc(C)cc2)ccc1=O
  1% | -1.6% | -3 | -8%
COC(=O)c1c(NC(=O)CN(c2ccc(C)c(C)c2)S(C)(=O)=O)sc2c1CCCC2
  -9% | -0.8% | -3 | -2%
CCOc1cc(C=O)ccc1OCCCN1C(=O)NC(C)(C)C1=O
  11% | -3.9% | 6 | 0%
CC(OC(=O)CN1C(=O)c2ccccc2C1=O)C(=O)NC1CCCC1 (stereo not given)
  34% | 1.0% | . | 2%
Cn1c(=O)c2[nH]c(SCc3cccnc3)nc2n(C)c1=S
  -10% | 4.2% | . | .
O=[N+]([O-])c1cccc(C(=Nc2ccccc2Cl)NO)c1
  0% | 2.9% | -11 | -1%
CCN(CC)c1ccc(N2C(=O)/C(=C/c3ccccn3)SC2=S)cc1
  0% | 2.2% | -3 | 0%
COc1ccc(-n2nc(C(=O)N(C)C)nc2-c2ccccc2)cc1
  -19% | 2.9% | . | -8%
CCCNC(=S)Nc1ccc(CC(=O)OC)cc1
  -2% | 2.3% | 5 | -11%
Nc1nnc(SCc2cccc(C(F)(F)F)c2)s1
  -3% | -5.4% | 3 | -24%
O=C(C1CCN(S(=O)(=O)c2cccnc2)CC1)N1CCN(c2ccccc2Cl)CC1
  -4% | 0.1% | 7 | -10%

# Copied from the list:
# Rango-impB inh, COC(=O)c1ccc2c(c1)NC(=O)c1ccccc1S2 → 3.2%
# Rango-impB inh, COC(=O)c1c(NC(=O)CN(c2ccc(C)c(C)c2)S(C)(=O)=O)sc2c1CCCC2 → -0.8%

# Remaining list, next part.
# Screens in order – Rango dissoc inh | Rango-impB inh | GLA inh pH 4.5 | miR-21 FLuc
N#Cc1c2n(c3c(N)ncnc13)CCCCC2
  17% | 1.0% | -5 | -24%
COc1cc(CNC(C)C23CC4CC(CC(C4)C2)C3)ccc1OCC(=O)NC(C)(C)C (stereo not given)
  10% | -0.1% | . | 6%
COc1ccc(C(=O)NCCS(=O)(=O)N2CCc3ccccc3C2)cc1
  -2% | 3.8% | . | .
O=C(NCCOc1ccccc1Cl)c1cccc2c1C(=O)c1ccc(Cl)cc1S2(=O)=O
  -6% | -6.3% | . | .
COc1ccc(C2C(C(=O)N3CCN(C)CC3)c3ccccc3C(=O)N2C2CCCCC2)cc1 (stereo not given)
  13% | -1.9% | -3 | -1%
COc1cc(C(=O)OCCCN2CCCN(CCCOC(=O)c3cc(OC)c(OC)c(OC)c3)CC2)cc(OC)c1OC
  5% | -0.7% | -14&0&4 | .
CCN(CC)c1ccc(/C=N/NC(=O)Nc2nonc2N)cc1
  -20% | ? | 2 | -48%
COc1ccc(NS(=O)(=O)c2ccc(N/N=C/c3ccc(N4CCOCC4)cc3)c([N+](=O)[O-])c2)cc1
  6% | -1.4% | 3 | -2%
CC1CCCN(CCCNC(=O)CN2C(=O)COc3ccccc32)C1 (stereo not given)
  0% | -0.2% | . | 1%
C/C(=N\NC(=S)NC(C)C)c1ccc2c(c1)OCCO2
  -4% | ? | -8 | -22%
S=C(NCc1ccco1)Nc1ccc(Oc2ccc(Cl)cc2)cc1
  6% | 11% | -3 | 15%
CCOc1ccc(-n2c(C)nc3cc(C(=O)NCCN4CCOCC4)ccc32)cc1
  -7% | ? | -3 | -3%
COC(=O)c1sc(NC(=O)CCCn2nc([N+](=O)[O-])cc2C)c(C(=O)OC)c1C
  23% | 4.6% | 0 | -3%
Cc1nn(C)cc1C(=O)Nc1ccc2c(c1)OCCO2
  0% | -0.5% | . | -39%
COCCN(CC1CCCN(C2Cc3ccccc3C2)C1)C(=O)CCC(C)=O (stereo not given)
  -12% | 0.5% | . | -1%
CN(C(=O)c1cccc(NC(=O)Cc2ccc(NC(=O)C3CCCN(C(=O)C4CCC4)C3)cc2)c1)C1CC1 (stereo not given)
  5% | 3.9% | . | .
CCOC(=O)N1CCC(NC(=O)c2cnn3c2NC(c2ccco2)CC3C(F)(F)F)CC1 (stereo not given)
  -12% | ? | -5 | 1%
COc1ccc(OC)c(NC(=S)N2CCCC2)c1
  -1% | -0.7% | . | -10%
O=C(Nc1cccnc1)C1CC(=O)N(c2ccc(F)cc2)C1 (stereo not given)
  -5% | -1.9% | . | -4%
COc1ccc(-c2nnc(SCCC(=O)O)n2-c2ccccc2)cc1OC
  6% | -3.6% | 9 | -2%

# 17 of these compounds in a different format:
mol	Rango dissoc inh	Rango-impB inh	GLA inh pH 4.5	miR-21 FLuc
N#Cc1c2n(c3c(N)ncnc13)CCCCC2	17%	1.0%	-5	-24%
COc1cc(CNC(C)C23CC4CC(CC(C4)C2)C3)ccc1OCC(=O)NC(C)(C)C (stereo not given)	10%	-0.1%	.	6%
COc1ccc(C(=O)NCCS(=O)(=O)N2CCc3ccccc3C2)cc1	-2%	3.8%	.	.
O=C(NCCOc1ccccc1Cl)c1cccc2c1C(=O)c1ccc(Cl)cc1S2(=O)=O	-6%	-6.3%	.	.
COc1ccc(C2C(C(=O)N3CCN(C)CC3)c3ccccc3C(=O)N2C2CCCCC2)cc1 (stereo not given)	13%	-1.9%	-3	-1%
COc1cc(C(=O)OCCCN2CCCN(CCCOC(=O)c3cc(OC)c(OC)c(OC)c3)CC2)cc(OC)c1OC	5%	-0.7%	-14&0&4	.
CCN(CC)c1ccc(/C=N/NC(=O)Nc2nonc2N)cc1	-20%	?	2	-48%
COc1ccc(NS(=O)(=O)c2ccc(N/N=C/c3ccc(N4CCOCC4)cc3)c([N+](=O)[O-])c2)cc1	6%	-1.4%	3	-2%
CC1CCCN(CCCNC(=O)CN2C(=O)COc3ccccc32)C1 (stereo not given)	0%	-0.2%	.	1%
C/C(=N\NC(=S)NC(C)C)c1ccc2c(c1)OCCO2	-4%	?	-8	-22%
S=C(NCc1ccco1)Nc1ccc(Oc2ccc(Cl)cc2)cc1	6%	11%	-3	15%
CCOc1ccc(-n2c(C)nc3cc(C(=O)NCCN4CCOCC4)ccc32)cc1	-7%	?	-3	-3%
COC(=O)c1sc(NC(=O)CCCn2nc([N+](=O)[O-])cc2C)c(C(=O)OC)c1C	23%	4.6%	0	-3%
Cc1nn(C)cc1C(=O)Nc1ccc2c(c1)OCCO2	0%	-0.5%	.	-39%
COCCN(CC1CCCN(C2Cc3ccccc3C2)C1)C(=O)CCC(C)=O (stereo not given)	-12%	0.5%	.	-1%
CN(C(=O)c1cccc(NC(=O)Cc2ccc(NC(=O)C3CCCN(C(=O)C4CCC4)C3)cc2)c1)C1CC1 (stereo not given)	5%	3.9%	.	.
CCOC(=O)N1CCC(NC(=O)c2cnn3c2NC(c2ccco2)CC3C(F)(F)F)CC1 (stereo not given)	-12%	?	-5	1%

# (listing goes on)
# Screens in order – Rango dissoc inh | Rango-impB inh | GLA inh pH 4.5 | miR-21 FLuc
O=C(COc1ccccc1Cl)NCCc1ccc2c(c1)OCCO2
  -6% | -1.8% | 7 | -55%
O=S(=O)(Cc1ccccc1)N1CCN(Cc2ccccc2)CC1
  -4% | 0.0% | 10 | -4%
CCCCn1c(=N)n(CC(=O)c2ccc([N+](=O)[O-])cc2)c2ccccc21
  . | . | -18 | -2%
Cc1ccc(C(=O)NCc2ccco2)cc1
  3% | 1.1% | . | -24%
Cn1c(SCCOc2ccccc2Cl)nnc1-c1cccs1
  0% | -1.4% | -16 | -49%
Cc1ccc(C(=O)N(Cc2nnc(-c3ccc(Cl)cc3)o2)C2CC2)o1
  5% | -0.1% | . | .
CCOC(=O)N1CCN(CCC(=O)Nc2ccccc2OC)CC1
  -3% | -3.9% | -1 | 2%
O=C(Nc1cc(Cl)ccc1N1CCOCC1)c1cccnc1Cl
  -9% | 0.6% | -6 | -8%
Cc1ccc(S(=O)(=O)/N=C(/Nc2ccccc2C)c2ccccc2)cc1
  -9% | -2.6% | . | .
CCOC(=O)c1ccc2c(c1)C1C=CCC1C(C(=O)O)N2 (stereo not given)
  . | . | 4 | -3%
COc1ccc(/C(N)=N/OC(=O)c2ccc3c(c2)OCO3)cc1
  2% | -1.5% | -3 | -43%
CCC(=NCCN1CCNCC1)C1=C(O)CC(C)(C)CC1=O
  -10% | -0.9% | 0 | -2%
c1ccc(C(Cc2nc(-c3cccnc3)no2)c2ccccc2)cc1
  3% | 0.4% | -12 | 2%
Cc1cc(C)n(-c2ccc(C(C)C)cc2)c(=O)c1C#N
  -15% | 6.6% | -3 | -4%
CN(Cc1ccccc1)C(=O)c1ccc(NC(=O)Cc2ccc(NC(=O)C3CCCN(C(=O)c4ccccc4)C3)cc2)cc1 (stereo not given)
  10% | 1.5% | . | .
Cc1ccc(NC(=S)NCC(C)C)cc1
  -9% | 0.1% | 5 | -43%
O=c1[nH]c(CN2CCN(Cc3ccccc3)CC2)nc2scc(-c3ccccc3)c12
  1% | 3.4% | -11 | -2%
CCOc1ccc(N2CC(C(=O)Nc3ccccc3C(=O)NC3CC3)CC2=O)cc1 (stereo not given)
  32% | 2.9% | . | -2%
Nc1ccc(SCc2cccnc2)cc1
  -1% | 4.1% | . | -11%
CN(CCCC(=O)O)c1ccc(N=Nc2ccc([N+](=O)[O-])cc2)cc1
  -1% | ? | . | .

# Screens in order – Rango dissoc inh | Rango-impB inh | GLA inh pH 4.5 | miR-21 FLuc
O=C1C(=O)N(Cc2cccnc2)C(c2ccccn2)/C1=C(/O)c1ccccc1 (stereo not given)
  -3% | -0.2% | -8 | 0%
COc1ccc(C(=O)On2c(-c3ccc(Br)cc3)nc3ccccc3c2=O)cc1
  -11% | 3.0% | 1 | 0%
CCCCC(=O)Nc1ccc(NC(=O)C2CC2)cn1
  -9% | 1.0% | -10 | -26%
COc1cc(/C=C/C(=O)c2ccc3c(c2)OCCO3)cc(Br)c1OCC(=O)N(C)C
  ? | ? | . | ?
CC(C)Oc1ccccc1/C=N/NC(=O)c1ccccc1Cl
  9% | -2.1% | 2 | -8%
CCc1c(C)c2ccc(OCC(=O)OC(C)C)c(C)c2oc1=O
  1% | 2.8% | -2 | -6%
CCn1c(SCC(=O)N2CCCCCC2)nc2ccccc2c1=O
  9% | 2.8% | . | -2%
O=C(Cc1ccccc1)NCC(=O)OCC(=O)c1ccc(F)cc1
  1% | 7.8% | . | -1%
O=S(=O)(c1cc(C(F)(F)F)ccc1Cl)N1CCCCCC1
  18% | -3.7% | 7 | -5%
CC(C)(C)C(=O)Nc1nc2c(s1)CN(Cc1ccccc1)CC2
  ? | ? | 0 | -50%
COc1ccc(NC(=O)C2Cc3ccccc3C(=O)O2)cc1 (stereo not given)
  -12% | 5.0% | 8 | -47%
